miR-21 FLuc – raises the signal of a miR-21 reporter; HeLa miR-21 FLuc reporter, luciferase, 48 h; Potency, µM (titrated, usually from 38.3 µM), for the others: top-dose reporter change, positive = more light; 340,000 tested, under 10 active; AID 2288; active = well fitted rising curve with a large enough effect; inconclusive = small, poorly fitted or top-dose-only effect; inactive = no such curve, though single readings can be large or run the other way;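 note: % of control where 0% means no effect; miR-21 action dims this reporter so a rising signal means less miR-21 action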
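HeLa cells stably expressing CMV-driven firefly luciferase with a downstream miR-21 binding sequence, endogenously expressing miR-21, were treated with titrations (up to about 40uM final) for 48 hours at 37 degree Celsius. Luciferase luminescence was read after lysis.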
Rango-impB inh – Rango-importin beta binding inhibition | Q14974 | Rango CFP/YFP FRET sensor + importin beta, 45 min | Potency, µM (top dose mostly 92.2 µM), inactives show at the highest dose inhibition of complex formation | hit rate 0.031% among 340,000; active = rising FRET ratio curve, often small or poorly fitted; inconclusive = mostly compound fluorescence or quenching in the first reads; inactive = flat curves in all reads;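 note: potency is the fitted concentration of half-maximal effect; 0% = DMSO wells and 100% = buffer wells lacking importin beta; nearly all actives have a fitted effect of over 15% in size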
Target sequence (Q14974 whole entry, looked up): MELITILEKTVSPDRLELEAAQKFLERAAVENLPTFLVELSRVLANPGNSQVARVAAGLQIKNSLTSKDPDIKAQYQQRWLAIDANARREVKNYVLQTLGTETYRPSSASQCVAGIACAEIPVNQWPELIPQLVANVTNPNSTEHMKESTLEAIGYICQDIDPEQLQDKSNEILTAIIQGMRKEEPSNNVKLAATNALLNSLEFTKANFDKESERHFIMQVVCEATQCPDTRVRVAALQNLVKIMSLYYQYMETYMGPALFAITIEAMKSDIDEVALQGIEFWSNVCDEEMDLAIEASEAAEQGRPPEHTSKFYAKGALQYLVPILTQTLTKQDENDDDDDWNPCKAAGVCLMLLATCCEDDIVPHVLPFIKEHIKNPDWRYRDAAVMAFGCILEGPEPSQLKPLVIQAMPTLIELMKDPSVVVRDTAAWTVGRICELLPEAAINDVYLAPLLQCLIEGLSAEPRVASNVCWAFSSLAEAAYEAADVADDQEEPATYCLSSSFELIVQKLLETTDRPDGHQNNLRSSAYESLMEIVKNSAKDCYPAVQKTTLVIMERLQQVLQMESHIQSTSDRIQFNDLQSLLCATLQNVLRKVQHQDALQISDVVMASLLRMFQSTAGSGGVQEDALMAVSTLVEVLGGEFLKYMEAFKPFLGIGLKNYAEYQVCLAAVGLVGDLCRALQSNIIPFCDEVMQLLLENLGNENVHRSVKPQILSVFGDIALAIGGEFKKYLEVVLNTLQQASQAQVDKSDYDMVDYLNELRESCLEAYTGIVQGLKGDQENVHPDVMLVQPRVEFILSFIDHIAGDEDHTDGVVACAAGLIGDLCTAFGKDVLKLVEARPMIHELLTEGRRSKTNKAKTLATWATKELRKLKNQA
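Inhibition scored from the CFP 486 nm/YFP 530 nm FRET ratio 45 min after adding 0.125 microM importin beta to 50 nM Rango biosensor preincubated 5 min with compound (room temperature, PBS with DTT, Tween-20, BSA). No-importin wells as positive control.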
GLA inh pH 4.5 – alpha-galactosidase A (human) inhibition, pH 4.5 | 230,000 tested, under 10 active | AID 1467 | purified enzyme, 4-MU-alpha-Gal fluorescence, pH 4.5 | activity change, negative = inhibition, % at 105 µM; inconclusive = small, poorly fitted or top-dose-only inhibition, or a rising curve; inactive = flat fitted curve, though single readings scatter; no compound was filed as active;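 note: 0% = full activity with enzyme and -100% = basal without enzyme; dose as in the result columns while the protocol names 77 µM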
Rango dissoc inh – inhibition of RanGTP-driven Rango-importin beta dissociation. O95149+P62826. Biochemical FRET Rango-importin beta, RanGTP-induced dissociation. Potency, µM (titrated, usually from 46.1 µM), without a hit: top-dose activity change, negative = inhibition. hit rate 0.071% among 340,000; active means falling FRET ratio curve, often poorly fitted, with flat reads before Ran was added; inconclusive means other falling curves, or compound fluorescence or quenching; inactive means flat or rising ratio curve;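 note: potency is the fitted concentration of half-maximal effect; % of control where 0% means no effect; nearly all actives have a fitted effect of over 45% in size; -100% = wells without RanGTP and RCC1; the record marks most hits as doubtful in a second field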
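Two FRET readings bracket the reaction: one 5 min after compound meets Rango–importin beta, another 45 min after RanGTP-RCC1 (0.6 uM Ran, 0.2 uM RCC1, 2 mM GTP) is added. Only the second defines inhibition.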
Numbers without * were called inactive; ? = inconclusive; . = not tested or not shown; & = joins results of further samples.

Each structure is followed by: miR-21 FLuc, GLA inh pH 4.5, Rango-impB inh, Rango dissoc inh
O=C(/C=C/c1ccccc1[N+](=O)[O-])N1CCN(c2ccccc2F)CC1
  -19%, -2, 4.5%, 0%
CC1=CC(c2ccccc2)n2nnnc2N1 (stereo not drawn)
  -4%, 2, -3.7%, -2%
O=C(NCCc1ccccc1)/C(=N\O)c1ccccc1
  -39%, 5, 0.1%, 0%
CCn1c(=O)cc(SCC(=O)NCc2ccc(C)o2)c2ccccc21
  17%, 1, 1.7%, 2%
CCOC(=O)c1csc(NC(=O)CCSc2ccccc2)n1
  12%, -3, 1.0%, 14%
Cc1nonc1C(=O)N/N=C/c1cc2c(cc1Br)OCO2
  -1%, -2, -0.6%, -10%
Cc1cccc(-n2c(SCC(=O)NCc3ccco3)nnc2-c2ccco2)c1
  -7%, -4, 1.2%, 12%
COc1ccccc1N1CCN(C(=O)c2cc(=O)c3c(C)cc(C)cc3o2)CC1
  2%, ., -2.5%, 2%
C=CCOC(=O)c1cn(CC)c2nc(C)ccc2c1=O
  1%, 2, 0.6%, 5%
O=C(CN1CCc2ccccc21)NC(=O)NCc1ccco1
  -3%, 0, -0.1%, 0%
O=C(Nc1ccc(S(=O)(=O)Nc2ncccn2)cc1)C1CC(=O)N(c2ccc(Cl)cc2)C1 (stereo not drawn)
  0%, ., -2.7%, -8%
CN(C)S(=O)(=O)c1ccc(Cl)c(NC(=O)COC(=O)CCSc2ccccc2)c1
  -11%, -11, -0.4%, -14%
CC(C)c1ccc(NC(=O)CNC(=O)Cn2cnc3ccccc3c2=O)cc1
  -7%, 2, -1.3%, -6%
Cc1occc1-c1nnc(SCC(=O)N2CCOCC2)n1CCc1ccccc1
  1%, 6, -0.1%, -1%
COc1cc2ccccc2cc1C(=O)N/N=C/c1ccc2c(c1)OCO2
  17%, ., -0.8%, 11%
CCC1=NN(C(=O)CCc2ccccc2)C(O)(C(F)(F)F)C1 (stereo not drawn)
  -5%, 13, 0.4%, 10%
O=C(NCc1ccccc1)c1cncc(Br)c1
  -9%, 3, -1.0%, -2%
CCOC(=O)C1=C(C)Nc2ccccc2N/C1=N\S(=O)(=O)c1cccc(Cl)c1
  ., ., -1.0%, -4%
O=c1c2c(nc3c(-c4ccc(Cl)cc4)c[nH]n13)CCCC2
  28%, -3, 2.3%, -9%
CCCOc1ccc(C(=O)c2nc3c(n2O)CCCC3)cc1
  -21%, -6, 2.6%, 3%
CC(=O)c1cccc(NC(=S)NC2CC2)c1
  5%, 5, -1.4%, -4%
COc1cc(S(=O)(=O)N(Cc2ccccc2)CC2CCCO2)ccc1-n1cnnn1 (stereo not drawn)
  1%, 0, 1.6%, 3%
O=C(CN1C(=O)NC2(CCCCC2)C1=O)N1CCN(S(=O)(=O)c2ccc(F)c(F)c2F)CC1
  ., ., -4.0%, -7%
Clc1ccc(CSc2snnc2-c2ccccc2)c(Cl)c1
  -47%, -9, -0.5%, 0%
OC(c1ccccn1)C(O)c1ccccn1 (stereo not drawn)
  ., ., 1.3%, 1%
O=C(NCc1ccccn1)c1cccc(S(=O)(=O)Nc2ccc(SC(F)F)cc2)c1
  ., ., -0.8%, -5%
Cc1ccc(C(=O)C(C)OC(=O)C2CC(=O)N(C3CCCCC3)C2)cc1 (stereo not drawn)
  0%, -4, -2.2%, -4%
COc1ccccc1NC(=O)c1ccc(NC(=O)CSc2ncn[nH]2)cc1
  -18%, 11, 0.0%, 6%
Cc1ccccc1-n1nnnc1SCC(=O)c1c(N)n(C)c(=O)n(C)c1=O
  -1%, 1, -1.1%, 3%
N=c1c2c(ncn1Cc1ccco1)Oc1ccc3ccccc3c1C2c1ccccc1 (stereo not drawn)
  25%, -12, 4.5%, -9%
CC(NC(=O)CSc1ncccn1)c1ccc2c(c1)OCO2 (stereo not drawn)
  ., ., -1.7%, -5%
COc1ccccc1C(=O)Nc1cccc(C(=O)N2CCOCC2)c1
  -4%, ., -1.1%, -14%
CC(=O)c1sc(NS(=O)(=O)c2ccc(C)cc2)nc1-c1ccccc1
  7%, ., -1.2%, -2%
CC(=O)N1CCN(Cc2nc3cc(NC(=O)Cn4nc(C)c5ccccc5c4=O)ccc3n2C)CC1
  -3%, 5, -3.5%, -4%
COc1cccc(CN2CCNC(=O)C2CC(=O)N(C)C2CCOCC2)c1OC (stereo not drawn)
  0%, ., 1.3%, -27%
Cc1cc(C(=O)N/N=C/c2ccc3ccccc3c2)n[nH]1
  -15%, ., 3.5%, -8%
COc1cc(C)c(NC(=S)Nc2cccc(Cl)c2)cc1OC
  -8%, -10, 0.0%, -11%
O=C(Cc1ccccc1)N1CCC(O)(c2cccnc2)CC1
  -2%, 4, -1.0%, 9%
NS(=O)(=O)c1ccc(NNC(=O)c2sccc2Cl)cc1
  -2%, -1, -2.1%, 16%
CC(=O)c1ccc(NC(=O)c2cnn3ccccc23)cc1
  ?, -7, -4.0%, 27%
Brc1cccc(-c2nnc3n2CCC3)c1
  9%, 3, -0.8%, 8%
COc1ccc(CN2CC(C(=O)NCCN3CCN(c4ccccc4F)CC3)CC2=O)cc1 (stereo not drawn)
  7%, 3, -0.4%, 7%
COc1ccc(OC)c(C2CC(c3c(-c4ccccc4)c4cc(Cl)ccc4[nH]c3=O)=NN2S(C)(=O)=O)c1 (stereo not drawn)
  0%, -5, 4.5%, 11%
CC(Sc1nnc(-c2ccc(Cl)cc2)n1N)C(=O)NCC1CCCO1 (stereo not drawn)
  ., ., 1.6%, 6%
CCCNC(=O)CN(C)CC(=O)Nc1ccccc1C#N
  0%, -3, -0.9%, 13%
Cc1cccc(C(=O)NCC(=O)OCC(=O)N2CC3(C)CC2CC(C)(C)C3)c1 (stereo not drawn)
  -4%, -4, -1.9%, 14%
CC(C)(C)c1cc[n+](-c2[nH]c(=O)sc2/C=N/NC([S-])=Nc2ccccc2)cc1
  -3%, -11, ?, -10%
C=CCc1cc2c(oc(=O)c3ccccc32)c(C)c1O
  -3%, 6, -3.6%, -9%
CCN(CC)c1ccc(/C=N/NC(=O)c2c(Cl)cnn2C)c(O)c1
  1%, 2, ?, ?
CCCNC(=O)CN(C)S(=O)(=O)c1c(C)cc(C)cc1C
  -7%, -1, 0.1%, -7%
Cc1ccsc1/C=N/NC(=O)c1c[nH]c2ccccc12
  -47%, -2, -4.6%, -5%
Cc1ccc(NC(=O)NCCN2CCCCC2)cc1
  -5%, ., -0.1%, 0%
CSc1nc2ccsc2c(=O)n1-c1ccccc1
  -12%, 8, 0.1%, 10%
OCCNCCOc1ccc(Cl)c(Cl)c1
  -5%, 8, 2.4%, -19%
O=C(COc1ccc(Cl)cc1Cl)Nc1ccc2nc3n(c(=O)c2c1)CCCC3
  0%, -4, -2.7%, -8%
CCOc1ccccc1CN1CCC(n2nccc2NC(=O)CCCc2ccccc2)CC1
  10%, ., 1.2%, -1%
COc1ccc(C(C)=O)cc1CS(=O)(=O)CC(=O)O
  0%, 4, 1.1%, -1%
O=C(c1ccc([N+](=O)[O-])cc1)N1C=CC(C(F)(F)F)=NCC1
  -1%, 2, 3.1%, 9%
O=C(c1ccccc1[N+](=O)[O-])N1CCN(Cc2ccc3c(c2)OCO3)CC1
  -6%, 2, -2.2%, 5%
Cc1ccc(-c2cc3ccccc3nc2N2CCOCC2)cc1
  4%, -1, 2.2%, 3%

Other entries follow:
Each structure is followed by: miR-21 FLuc, GLA inh pH 4.5, Rango-impB inh, Rango dissoc inh
CC12CN3CC(C)(CN(C1)C3c1cc3ccccc3[nH]1)C2=O (stereo not drawn)
  0%, 8, -1.6%, 9%
O=C(COC(=O)C1CCC1)NCc1ccccc1Cl
  -4%, 1, 2.7%, 2%
COc1ccc(NC(=O)NC2CCCc3ccccc32)c(OC)c1 (stereo not drawn)
  12%, ., -3.5%, 4%
CCN(Cc1ccccc1)C(=O)CCS(=O)(=O)c1ccc2c(c1)CCN2C(C)=O
  -2%&8%, ., -6.1%, -2%
CC(C)(C)OC(=O)N1CCN(C(=O)[C@H](Cc2ccc(O)cc2)n2cc(CCO)nn2)CC1
  0%, 4, 2.3%, 6%
COc1cc(/C=C/C(=O)N2CCCc3ccccc32)cc(OC)c1OC
  16%, 3, 0.7%, -2%
CCCOC(=O)C1=C(C)NC2=C(C(=O)CCC2)C1c1cc(OC)ccc1OC (stereo not drawn)
  -5%, -4, 5.8%, -7%
Cc1nc(SCC(=O)Nc2ccccc2Cl)c2c(C)c(C)sc2n1
  ., ., 1.1%, 9%
COCCCC1CCN(C(=O)c2cc(COc3cc(C)ccc3C)on2)CC1
  -51%, ., -0.7%, -5%
COc1ccccc1-c1nnc(N(C)C(=O)C2CCCO2)s1 (stereo not drawn)
  -19%, -3, 4.7%, 14%
O=C(CCNC(=O)c1ccc([N+](=O)[O-])cc1)NC1CCCCC1
  ., ., -0.1%, 6%
CCOc1cc(C(=O)Nc2ccncc2)cc(OCC)c1OCC
  3%, -7, 1.9%, 1%
O=S1(=O)CCN(Cc2ccc(Cl)cc2)CC1
  -4%, -19, 0.3%, 1%
COc1ccc(C(=O)NC(=S)Nc2ccccc2F)cc1
  -70%, 3, 4.0%, -10%
CCC1(C)Cc2c(sc3nnn(CC(=O)Nc4ccccc4)c(=O)c23)CO1 (stereo not drawn)
  -3%, 1, 0.0%, -8%

Some entries already given, reduced to Rango dissoc inh and Rango-impB inh:
| compound | Rango dissoc inh | Rango-impB inh |
| --- | --- | --- |
| COc1ccc(NC(=O)NC2CCCc3ccccc32)c(OC)c1 (stereo not drawn) | 4% | -3.5% |
| CCN(Cc1ccccc1)C(=O)CCS(=O)(=O)c1ccc2c(c1)CCN2C(C)=O | -2% | -6.1% |
| CC(C)(C)OC(=O)N1CCN(C(=O)[C@H](Cc2ccc(O)cc2)n2cc(CCO)nn2)CC1 | 6% | 2.3% |

Continuation.
Each structure is followed by: miR-21 FLuc, GLA inh pH 4.5, Rango-impB inh, Rango dissoc inh
CCOc1cc(NC(=S)NCC2CCCO2)c(OCC)cc1NC(=O)c1ccc(OC)cc1 (stereo not drawn)
  -6%, 1, 3.0%, 7%
Clc1ccc2nc(SCc3nnc(-c4ccccc4)o3)[nH]c2c1
  -14%, -9, 1.3%, 4%
CCOC(=O)C1CCN(C(=O)c2ccc3c(c2)OCCO3)CC1
  ., ., -4.3%, 12%
COc1ccccc1NC(=O)NC1(C(=O)N2CCCCC2)CCCCC1
  0%, ., -0.7%, 1%
CCc1ccc(Nc2ncc3c(n2)CC(c2ccc(OC)cc2)CC3=O)cc1 (stereo not drawn)
  -10%, 8, 0.0%, 12%
Cn1c(=O)[nH]c(=O)c2c1nc(NN)n2CCOc1ccccc1
  4%, ., 0.4%, -10%
COC(=O)c1ccc(NS(=O)(=O)N(C)C)cc1
  0%, 3, ?, 6%
CC(=O)c1ccc(N(C(=O)Cn2nnc(-c3ccccc3)n2)C(C(=O)NC2CCCCC2)c2ccccn2)cc1 (stereo not drawn)
  -2%, -1, -1.1%, -13%
COc1cc(/C=C(\C#N)C(=O)Nc2cccc3ncccc23)cc(OC)c1OC
  13%, -5, ?, ?
Cn1cnnc1SCC(C)(C)NS(=O)(=O)c1ccc(Cl)cc1
  0%, ., -1.0%, -6%
CCC(C(=O)NC1CCCC1)N(C(=O)Cn1nnc(-c2ccc(C)o2)n1)c1cnc2ccccc2c1 (stereo not drawn)
  0%, 9, -1.4%, -4%
Cc1ccc(NCc2nc3ccccc3n2C)cc1
  -41%, -1, -0.9%, 31%
Cc1cccc(NC(=O)c2cc(NC(=O)C3CCCCC3C(=O)O)ccc2N2CCOCC2)c1 (stereo not drawn)
  -11%, ., 1.7%, -9%
Cc1nc2ccccc2c2c1C(=O)N(C)C2=O
  -2%, -6, -2.2%, 1%
CC(C)CC(c1nnnn1CCc1ccccc1)N1CCN(C(=O)c2ccco2)CC1 (stereo not drawn)
  -11%, -6, ?, -7%
Cn1c(S(=O)(=O)c2ccc([N+](=O)[O-])cc2)nc(Br)c1Br
  10%, -1, -3.2%, 8%
COc1ccccc1N1CCN(C(=O)C2c3ccccc3Oc3ccccc32)CC1
  23%, -8, 2.6%, 14%
CCOC(=O)N1C(=O)[C@@](CC)(c2ccccc2)N1C(=O)OCC
  2%, ., -1.3%, -5%
Cc1ccc(C(C)C)c(OCCNCc2ccccc2)c1
  7%, ., -3.7%, 3%

Screening results as filed in PubChem BioAssay.

The list is partial; the hit share may differ from the screen's.
